Beta cell apopt: inhibitors of cytokine-induced beta cell apoptosis, primary screen, luminescence. INS-1E cytokine-induced death, ATP luminescence, 48 h; percent of positive-control rescue, neutral wells zero. protection from apoptosis, % (no concentration beside the values). 300,000 tested, 0.8% active;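 active = all replicates at 75% or more, or half of them and the mean; inconclusive = half reach 75% but not the mean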;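 note: 0% = cytokine-treated negative control wells and 100% = positive control rescue; higher means more ATP so stronger rescue from cytokine killing; wells of about 40 µL received 100 nL stock; the first replicate is given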
Calb FLC: C. albicans growth inhibition with fluconazole, primary screen, CaCi-2 strain, Alamar Blue fluorescence; C. albicans CaCi-2 (fluconazole-resistant clinical isolate) + fluconazole, 48 h; growth inhibition, % (concentration not given with the values); 300,000 tested, 0.57% active;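 active = most replicates above 75%; inconclusive = exactly half above 75%; inactive = most below 75%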;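 note: all wells also contain fluconazole at 8 µg/ml as a sub-toxic cotreatment; 0% = median of DMSO wells and 100% = median of geldanamycin control wells; wells of about 8 µL received 7.5 nL stock; the first replicate is given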
T cruzi inh: inhibitors of intracellular T. cruzi growth, primary screen, luminescence, NIH3T3 host cells | 300,000 tested, 1.4% active | inhibition, % (test concentration not listed) | T. cruzi beta-gal in NIH3T3, 90 h | AID 1885, 2009;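 active = mean inhibition across valid replicates above about 55%, limit read from the data; inconclusive = mean below that limit but half or more replicates reach it; inactive = mean below it, under half of replicates reach it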;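 note: signal also drops with host cell toxicity which is not excluded here; 0% = plate median of DMSO wells and 100% = zero luminescence signal; higher percent means less beta-gal luminescence so fewer parasites; stock transfer was 50 nL into about 50 µL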
Ecoli rRNA inh: reduced GFP signal of wild-type E. coli, primary screen, bacterial rRNA inhibitor project, GFP/RFP fluorescence, OD600, single point. E. coli WT GFP vs humanized-ribosome RFP mutants, 24 h; stronger effect = lower value; DMSO median 0, no signal -100. GFP signal change (wild-type ribosome), % (no concentration beside the values). 350,000 tested, 1.6% active. AID 720706, 2013;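 active = significant combined selectivity score with lowered wild-type GFP, culture density cut under 30%, mutant RFP and density less affected; inactive = any of these conditions unmet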; note: one replicate is shown; some compounds called inactive have numbers as strong as hits
RanGTP-Impb inh: inhibitors of RanGTP-importin-beta interaction, primary screen, biochemical, FRET, CFP-Ran, YFP-importin-beta, homogeneous | Ran GTPase (GTP-bound) - importin-beta complex | cell-free CFP-Ran/YFP-importin-beta FRET ratio | inhibition, % (concentration not given with the values) | 300,000 tested, 1.1% active;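 active = most replicates above 15%; inconclusive = exactly half above 15%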;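 note: 0% = DMSO wells and 100% = Ran loaded with GDP instead of GTP; wells of about 40 µL received 100 nL stock; the first replicate is given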
MLL AF4-AF9 inh: inhibitors of AF4 peptide binding to AF9, primary screen, biochemical, AlphaScreen, biotin-AF4 peptide, FLAG-AF9, single point; Protein AF-9 (Homo sapiens), P42568; 350,000 tested, 0.47% active; inhibition, % at 10 µM;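 active = every replicate reaching a set inhibition limit, whatever the replicate mean, cut at about 25% in these data; inconclusive = mean inhibition reaches that limit but some replicates miss it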;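 note: 0% = plate neutral control median and 100% = total signal loss; the record names both 10 and 1 µM as test concentration; the first replicate is given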
Target sequence (P42568 whole entry, looked up): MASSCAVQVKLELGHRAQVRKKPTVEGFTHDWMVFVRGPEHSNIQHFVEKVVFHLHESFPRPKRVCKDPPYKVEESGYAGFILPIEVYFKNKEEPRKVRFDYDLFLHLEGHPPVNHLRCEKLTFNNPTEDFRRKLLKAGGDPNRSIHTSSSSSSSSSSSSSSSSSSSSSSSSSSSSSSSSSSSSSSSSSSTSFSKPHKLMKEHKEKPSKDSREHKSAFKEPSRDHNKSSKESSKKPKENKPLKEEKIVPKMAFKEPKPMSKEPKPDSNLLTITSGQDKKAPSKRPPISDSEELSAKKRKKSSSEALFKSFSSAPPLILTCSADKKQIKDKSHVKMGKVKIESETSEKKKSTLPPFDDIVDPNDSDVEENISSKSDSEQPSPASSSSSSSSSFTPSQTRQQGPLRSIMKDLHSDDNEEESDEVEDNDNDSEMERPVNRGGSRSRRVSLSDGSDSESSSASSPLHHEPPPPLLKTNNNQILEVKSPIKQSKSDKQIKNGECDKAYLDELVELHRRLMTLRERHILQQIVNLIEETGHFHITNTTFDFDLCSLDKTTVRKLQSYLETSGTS
Vif A3G: inhibitors of Vif binding to APOBEC3G peptide, primary screen, biochemical, TR-FRET, GST-Vif 1-94, biotin-A3G peptide, dose response retest (AID 1117319); Virion infectivity factor (Human immunodeficiency virus type 1 group M subtype B (isolate …; TR-FRET GST-Vif / biotin-A3G peptide binding; higher % means a stronger effect; test concentration not given here; strong numbers were not always called active; inhibition, %, or IC50 in µM where a hit was titrated; 260,000 tested, 0.57% active;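 active = above the screen mean plus three standard deviations and confirmed in dose response; inconclusive = results disagree or hit not tested in dose response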;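 note: Vif residues 1-94 fused to GST binding biotinylated APOBEC3G peptide 110-148; 0% = full assay without inhibitor and 100% = GST in place of GST-Vif; retest series ran down from 100 µM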
Bfl-1 A1 inh: caspase 3/7 activation in MEF A1-2A-BIM cells, primary screen, A1 inhibitor project, cell-based, luminescence, HTS; caspase activation, % (no concentration beside the values); Caspase-Glo 3/7 luminescence, 3 h; percent of clofoctol response, vehicle zero; 330,000 tested, 0.066% active;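 active = over half of replicate activation scores above 10%, or exactly half above 10 with the replicate mean above 10; inconclusive = replicate mean below 10 yet half the replicates above 10; inactive = over half of replicates below 10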;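 note: wells of about 30 µL received 50 nL stock; many hits fall short of the cut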
Ecoli rRNA inh OD600: also measured in Ecoli rRNA inh; calls as there; OD600 change, %; measured here: OD600 growth;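 optical density of the mix in the first replicate; 0 = DMSO median and -100 = no signal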
Ecoli rRNA inh RFP: also measured in Ecoli rRNA inh; calls as there; RFP signal change, %; measured here: RFP humanized mutant strains;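 first replicate; 0 = DMSO median and -100 = no signal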
An asterisk follows results filed as active; ? = inconclusive; · = not tested or not shown.

Fields: Beta cell apopt	Calb FLC	T cruzi inh	Ecoli rRNA inh	Ecoli rRNA inh OD600	Ecoli rRNA inh RFP	RanGTP-Impb inh	MLL AF4-AF9 inh	Vif A3G	Bfl-1 A1 inh
1) Cc1nc(SCC(=O)Nc2c(C)n(C)n(-c3ccccc3)c2=O)c(C#N)c(C)c1C
 : -9	·	·	·	·	·	·	-6.9	-11%	1.0
2) O=C(Nc1cc(S(=O)(=O)N2CCCCC2)ccc1Cl)C1COc2ccccc2O1 (centres undefined)
 : 4	·	·	-3	-1	1.5	·	0.6	·	0.3
3) S=c1[nH]nc(-c2ccncc2)n1/N=C/c1ccccc1
 : 0	14	3	·	·	·	-1.4	·	1%	-0.2
4) Cc1ccc(NC(=O)c2ccc3nccnc3c2)c(C)c1
 : -1	20	-8	6	6	-2.8	0.2	1.9	·	0.2
5) COc1ccc(CN2C(=NC(=O)CCc3ccccc3)SC3CS(=O)(=O)CC32)cc1 (centres undefined)
 : 8	1	8	4	20	-5.2	2.1	-3.8	-2%	-0.7
6) Cc1ccc(S(=O)(=O)N2CCN(CC(=O)N/N=C\c3ccncc3)CC2)cc1
 : 4	-9	4	8	10	-1.7	-4.7	11	-6%	0.3
7) Cc1oc(-c2ccccc2F)nc1CN1CCC(C(=O)NCc2ccco2)CC1
 : -3	-7	-2	·	·	·	-4.3	·	11%	0.0
8) Cc1oc2cc(OCc3cnn(-c4ccccc4)c3)ccc2c(=O)c1Oc1ccccc1F
 : -2	-27	-5	8	5	-0.1	-0.5	-0.2	·	0.0
9) CN1C(=O)C(C(=O)NC(C)(C)C)C2c3ccccc3OC13CCCCC23 (centres undefined)
 : 3	10	4	·	·	·	5.5	·	23%	1.7
10) Cc1cc(CN(C)C(=O)CCc2nnc(Cc3cccc(C(F)(F)F)c3)o2)on1
 : ·	-11	1	4	19	-0.5	1.8	-0.7	·	1.4
11) CCOC(=O)C1CCN(C(=O)c2ccccc2Oc2ccccc2)CC1
 : -9	0	19	·	·	·	9.1	·	-9%	1.0
12) CCOc1ccccc1NC(=O)C1C2CCC3C(CCC21)C3(Cl)Cl (centres undefined)
 : 4	-12	27	·	·	·	-3.2	·	5%	-0.2
13) CN(C)CCCOC(=O)c1cc2ccccc2o1
 : -5	26	-3	·	·	·	0.0	·	?	-2.1
14) CCOCCCN(C(=O)c1snc(C(N)=O)c1N)C(C(=O)NC1CCCC1)c1ccc(F)cc1 (centres undefined)
 : -2	-3	9	12	-3	3.0	-1.5	2.2	0%	-0.4
15) CCOC(=O)c1sc(=S)n(-c2ccccc2)c1C
 : -2	1	-18	10	6	1.7	-1.8	-1.7	·	-0.3
16) O=C(NCc1ccc(F)cc1)c1cccc(S(=O)(=O)N2CCOCC2)c1
 : 2	·	·	10	1	0.9	·	0.0	-9%	2.9
17) COc1ccccc1CNC(=O)C1CCCCN1S(=O)(=O)c1ccccc1 (centres undefined)
 : -1	-23	19	-7	-7	2.1	-2.5	-0.1	·	0.4
18) CCCCc1nnc(NC(=O)CSc2nc(O)c(-c3ccccc3)c(=O)[nH]2)s1
 : -4	1	4	15	10	2.9	-3.2	-2.0	5%	1.6
19) COCCn1c(=S)[nH]c2ncccc2c1=O
 : 2	-10	-6	·	·	·	-1.3	·	?	0.4
20) COC(=O)c1ccc(Cn2nnc3c(=O)[nH]c(C4CCCN(S(=O)(=O)c5ccc(C)cc5)C4)nc32)cc1 (centres undefined)
 : ·	7	-1	15	14	0.6	2.3	0.2	·	·
21) O=C(NC1CCCCCC1)c1ccc(=O)n(Cc2ccccc2)n1
 : -4	-4	9	-18	-17	-4.9	-3.5	-0.4	-3%	-0.8
22) CCCc1cc(=O)[nH]c(SCc2nc3ccccc3s2)n1
 : -4	-8	1	·	·	·	-4.5	·	15%	0.3
23) O=C1c2c([N+](=O)[O-])cc([N+](=O)[O-])cc2S(=O)N1Cc1ccccc1 (centres undefined)
 : -5	-5	?	12	11	-2.0	1.4	-8.4	28%	0.8
24) CCCCn1nnc(NC(=O)c2ccc(-c3ccccc3)cc2)n1
 : 0	-28	13	·	·	·	-0.1	·	-8%	-1.4
25) COc1ccc(N(C(=O)c2cccnc2)S(=O)(=O)c2cc(OC)ccc2OC)cc1
 : -2	0	-11	0	-1	-0.2	-1.5	4.3	-2%	-1.4
26) Cc1cccc(OC2(c3ccccc3)OC(=O)c3ccccc32)c1C (centres undefined)
 : 2	-5	7	·	·	·	-3.0	·	3%	-0.2
27) Cc1ccc(N(Cc2cc3cccc(C)c3[nH]c2=O)S(=O)(=O)c2ccccc2)c(C)c1
 : 1	8	27	·	·	·	-0.8	·	1%	2.3
28) COc1ccc(-n2nc(C(N)=O)c(O)cc2=O)cc1
 : -2	12	-15	14	15	4.9	-1.6	-8.2	3%	-0.4
29) COc1cccc(/C=N/NC(=O)c2ccoc2C)c1
 : 1	-5	6	9	-10	-2.5	-0.7	-3.7	8%	-9.0
30) Cn1c(N)c(C(=O)COc2ccc(Cl)cc2Cl)c(=O)n(C)c1=O
 : 6	-2	1	11	6	-6.5	·	-1.7	-13%	1.0
31) CN(CC(=O)Nc1ccc(F)cc1)C(=O)CSc1nccn1C
 : -2	8	-5	3	3	0.7	-5.0	-11	2%	-0.7
32) CCOC(=O)C1CCN(c2nc3cc(OC)ccc3cc2C#N)CC1
 : -6	16	3	·	·	·	-0.6	·	-3%	1.2
33) CCN=c1scc(-c2ccco2)n1/N=C/c1ccc(O)cc1
 : 2	-9	-14	·	·	·	9.7	·	?	0.3
34) COC(=O)CC1C(=O)NCCN1C(=S)Nc1cc(C)cc(C)c1 (centres undefined)
 : -4	-5	-9	·	·	·	2.2	·	-3%	0.4
35) COc1ccc(Oc2cccc(Cl)c2CNC(=O)c2ccccc2C(=O)O)cc1
 : -2	20	7	-13	-17	1.1	1.2	-0.4	-10%	2.1
36) Cc1c([N+](=O)[O-])c(C/C=N/O)nn1C
 : ·	-17	-5	·	·	·	5.4	-0.4	-13%	·
37) O=C(O)c1ccc(Cl)c(S(=O)(=O)Nc2ccc(OCc3ccccc3)cc2)c1
 : ·	12	-6	-10	-20	1.0	-2.4	0.1	·	0.2
38) CC(C)CN(CC(C)C)C(=O)c1cc(S(=O)(=O)N2CCCCC2)c[nH]1
 : 3	8	13	-3	-2	-3.2	1.4	-3.8	·	-0.2
39) CN(C=C1C(=O)CC(C)(C)CC1=O)CCN1CCNCC1
 : -3	2	-5	·	·	·	9.3	·	8%	0.3
40) NS(=O)(=O)c1ccc(CNC(=O)c2ccc(Cl)c([N+](=O)[O-])c2)cc1
 : -15	-6	37	8	5	-3.2	4.2	16	-7%	0.3
41) COc1cccc(/C=C2\N=C(c3c(-c4ccccc4)noc3C)OC2=O)c1OC
 : -1	-2	-1	5	0	0.3	-1.6	·	-8%	0.5
42) O=C1Nc2ccccc2Nc2ncccc21
 : -11	-3	-10	·	·	·	1.5	·	-8%	0.0
43) CN(C(=O)COC(=O)c1ccccc1SCC(=O)N1CCCC1)C1CCS(=O)(=O)C1 (centres undefined)
 : -3	-5	-7	1	7	0.5	0.3	-2.7	·	0.0
44) COc1ccc(C(=O)Nc2ccccc2C(N)=O)cc1
 : 7	·	3	·	·	·	·	·	-4%	-8.7
45) COC(OC)C(C)NC(=O)NC(=O)c1ccccc1Cl (centres undefined)
 : -11	24	-11	9	0	-2.8	-1.5	-12	-13%	0.2
46) COc1ccc(CNC(=O)c2c(O)c3cccc4c3n(c2=O)CCC4)cc1
 : ·	-17	-2	·	·	·	3.2	·	-1%	·
47) Cc1c(NC(=O)C(C)N2C(=O)C3C4C=CC(C4)C3C2=O)c(=O)n(-c2ccccc2)n1C (centres undefined)
 : 1	-1	4	13	11	-2.2	-0.7	-2.4	0%	-0.1
48) O=C(O)c1ccc(NC(=O)c2cn(-c3ccccc3)nc2-c2ccc(Cl)cc2)cc1
 : -6	-13	4	-19	-10	-1.4	-0.1	1.7	9%	-0.4
49) Cc1[nH]c(=O)[nH]c(=O)c1S(=O)(=O)N1CCCC(C(=O)NCc2ccccc2Cl)C1 (centres undefined)
 : 0	3	0	·	·	·	-3.4	·	-2%	?
50) COc1cc(C(=O)NNC(=O)COc2ccc(C)cc2)ccc1OCC(=O)N1CCOCC1
 : 3	·	·	7	4	2.1	·	2.2	12%	-0.5
51) COC(=O)c1c(C(=O)OC)c(-c2cccc(Cl)c2)n2c1CS(=O)C2 (centres undefined)
 : -5	6	0	2	-1	0.3	4.2	-0.4	?	0.9
52) CC1CCC(NC(=O)CCCCn2c(=O)[nH]c3ccsc3c2=O)CC1 (centres undefined)
 : 4	2	14	1	-3	-1.0	1.8	3.8	·	-0.2
53) COc1cc2c(cc1OC)C1CC(=O)C(CC(C)C)CN1CC2 (centres undefined)
 : 2	-20	13	-2	-10	0.6	-1.9	1.7	·	-0.2
54) O=C(CSc1nnc(-c2ccccc2)o1)n1c2c(c3ccccc31)CCCC2
 : ·	-6	-7	·	·	·	0.3	·	-6%	·
55) Cc1sc2nc(CN3CCC(C)CC3)nc(Cl)c2c1C
 : -16	-12	-5	-4	-6	1.8	0.0	-13	·	-0.1
56) Cc1ccc2nc(CCc3nc4ccc(C)cc4[nH]3)[nH]c2c1
 : 6	-22	19	-2	-6	18	-1.6	-2.2	·	-1.3
57) O=S(=O)(c1ccc(Oc2ccc(F)c(Cl)c2)nc1)N1CCOCC1
 : -5	6	3	15	6	4.5	0.0	-0.5	·	0.6
58) Cc1nnc(NC(=O)CN2CCN(Cc3c(Cl)cccc3Cl)CC2)s1
 : 0	2	20	10	5	2.5	-1.5	-0.6	-1%	-0.6
59) O=C(CS(=O)CC(=O)Nc1cccnc1)Nc1ccc(F)cc1 (centres undefined)
 : -1	1	-6	3	3	-3.6	0.0	11	·	0.8
60) Cc1onc(-c2c(F)cccc2Cl)c1C(=O)N=C(N)N1CCCC1
 : -12	-5	-10	9	10	-0.8	3.3	0.6	·	-0.5
61) CCOc1ccc(NC(=O)COC(=O)CC2CC3CCC2C3)cc1 (centres undefined)
 : -2	·	·	-17	-14	5.4	·	-0.1	·	0.5
62) COc1ccc(C(CNC(=O)Cc2ccc3ccccc3c2)N(C)C)cc1 (centres undefined)
 : ·	8	0	2	-2	0.8	0.7	-0.8	·	2.1

Some of the compounds tested; the hit share may differ from the screen's.
